HSV replic up: increases HSV replication in cells | maximum fold increase | AID 1956 | hit rate 0.005% among 220,000 | HSV replication augmentation in cells, fold increase;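 active = peak rise of 1.5-fold or more in the series; tested in PC3 cells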;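 note: first round at 10 µM; read as green reporter fluorescence; hits show the peak of a series up to 25 µM; 1 = signal of infected wells without compound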
RGS16-Gao HTS: regulators of human RGS16-Galphao interaction; binding response (% of control), % at 10 µM; AID 1441; hit rate 0.38% among 220,000; bead-based flow cytometry RGS16-Galphao binding, fluorescence; actives lie on both sides;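 active = below 25% or above 175%, edge rows of some plates excepted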;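 note: Galphao activated by GDP with aluminum fluoride before binding; 100% = wells without compound and 0% = beads without RGS; some results beyond the cut were filed as inactive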
Target sequence (O15492 whole entry, looked up): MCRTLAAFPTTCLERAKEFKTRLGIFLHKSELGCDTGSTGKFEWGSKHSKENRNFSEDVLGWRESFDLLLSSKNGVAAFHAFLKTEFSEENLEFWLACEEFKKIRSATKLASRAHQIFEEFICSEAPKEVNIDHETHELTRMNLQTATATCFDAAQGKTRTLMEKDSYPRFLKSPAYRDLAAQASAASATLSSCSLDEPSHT
Target sequence (P09471 whole entry, looked up): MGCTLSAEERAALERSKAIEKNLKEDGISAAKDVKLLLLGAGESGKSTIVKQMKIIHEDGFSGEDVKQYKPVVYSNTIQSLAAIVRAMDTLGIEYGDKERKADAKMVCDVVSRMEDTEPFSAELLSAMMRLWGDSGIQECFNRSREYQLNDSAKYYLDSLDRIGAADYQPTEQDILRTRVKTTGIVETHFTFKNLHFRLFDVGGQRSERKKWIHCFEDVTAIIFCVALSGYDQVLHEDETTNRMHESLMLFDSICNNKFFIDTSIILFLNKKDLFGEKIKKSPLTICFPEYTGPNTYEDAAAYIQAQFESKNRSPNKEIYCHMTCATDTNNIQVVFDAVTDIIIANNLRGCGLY
PKD1 inh: inhibitors of human PKD1 kinase. PKD1 kinase fluorescence polarization assay. inhibition, %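 (about 10 µM by stock and volumes)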. hit rate 0.056% among 200,000. AID 797;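 active = inhibition of 50% or more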;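 note: controls were vehicle for no effect and a reference inhibitor for full effect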
GALR2 agonist: activates the human galanin receptor 2 | hit rate 0.48% among 140,000 | AID 803 | activation, %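 (tested at 5 µM)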 | GALR2-expressing cells, agonist activation read-out;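 active = above mean plus 3 SD of all compounds, about 5% in these data, not always enough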;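 note: 0% = vehicle buffer wells and 100% = reference agonist at full effect; tested in CHO reporter cells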
Target sequence (O43603 whole entry, looked up): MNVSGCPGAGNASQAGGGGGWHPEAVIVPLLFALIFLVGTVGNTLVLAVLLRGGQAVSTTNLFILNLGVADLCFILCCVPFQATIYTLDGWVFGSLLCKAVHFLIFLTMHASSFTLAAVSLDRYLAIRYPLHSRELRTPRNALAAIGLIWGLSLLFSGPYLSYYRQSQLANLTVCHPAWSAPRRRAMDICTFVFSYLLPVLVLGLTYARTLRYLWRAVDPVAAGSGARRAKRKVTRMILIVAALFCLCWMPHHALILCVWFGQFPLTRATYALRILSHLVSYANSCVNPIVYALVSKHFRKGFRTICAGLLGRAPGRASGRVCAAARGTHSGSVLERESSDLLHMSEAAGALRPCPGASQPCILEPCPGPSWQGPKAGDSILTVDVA
Insulin prom inh: TRM-6 insulin promoter activity inhibition; inhibition, % at 2 µM; TRM-6 cells (human fetal islet line), insulin promoter-eGFP reporter, imaging; reporter expression induced with tamoxifen; hit rate 0.9% among 130,000;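 active = inhibition above the mean plus 3 SD, with well images judged a real hit on visual review, cut at about 60% in these data, passing the limit was not always enough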
Insulin prom inh cell count: recorded beside Insulin prom inh, whose call it bears; normalized cell count, %; measured here: cell count, toxicity; reference of the scale not given here;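 cells exposed to compound for 48 h; stained nuclei by imaging scaled within each plate; lower means fewer cells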
HSV replic up primary fold: further read-out of HSV replic up, marked with its call; fold increase; compound at 10 µM; measured here: primary screen fold increase 10 uM; tested in PC3 cells;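 GFP signal in the first replicate; 1 = infected wells without compound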
The depositor's hits bear a star; i = inactive; / = not tested or not shown; & = joins results of further samples.

SMILES	HSV replic up	HSV replic up primary fold	RGS16-Gao HTS	PKD1 inh	GALR2 agonist	Insulin prom inh	Insulin prom inh cell count
CC(C)(C)NC(=O)CN(C(=O)CS(=O)CC(=O)Nc1ccc(F)cc1)c1ccc(F)c(Cl)c1 (centres undefined)	i	1.1	109	-12	0.3	/	/
Cc1ccc(C)c(NC(=O)c2nnn(Cc3ccccc3C)c2N)c1	i	0.83	103	17	-0.3	/	/
Cc1ccc(C(=O)c2cn[nH]c2-c2cc(Cl)ccc2O)cc1	i	0.89	100	2	-2.4	10	168
Cc1nnc(C)c2c(C)n(-c3ccc4ncccc4c3)c(C)c12	i	0.98	107	-2	/	-42	102
O=C(Nc1ccnc(-c2cccnc2)n1)c1ccc(Cl)c(Cl)c1	i	1.2	101	-3	-1.2	27	135
COc1ccc(N2CCN(C(=O)CCCN3C(=O)c4cccc5cccc(c45)C3=O)CC2)cc1	i	0.74	184	10	1.4	36	42
O=C(Nc1ccccc1C(F)(F)F)N1CCN(c2ccc3nncn3n2)CC1	i	0.96	100	-6	0.1	-27	121
Cc1ccc(C(=O)Nc2ccncc2)o1	i	1.1	102	12	-0.5	10	163
COc1ccccc1CNC(=O)CN1C(=O)CSc2ccc(S(=O)(=O)N3CCCC3)cc21	i	0.92	100	2	/	/	/
CC(C)(C)C(=O)c1no[n+]([O-])c1/C(=N/O)C(C)(C)C	i	1	106	2	-0.7	26	142
Cc1ccc(SCCNC(=O)c2cccc([N+](=O)[O-])c2C)cc1	i	1.1	107	-3	-1.0	/	/
Cc1cccc(NC(=O)c2ccccc2OCC(=O)N2CCOCC2)c1C	i	0.93	72	2	-0.9	-58	34
COc1cccc(-n2c(CN3CCN(c4ccccc4)CC3)nc3ccc([N+](=O)[O-])cc3c2=O)c1	i	0.92	98	-3	-0.1	-11	138
CC(C)c1cc(N2CCN(C(=O)c3ccco3)CC2)n2c(nc3ccccc32)c1C#N	i	0.8	152	1	1.2	/	/
O=C(Cc1c[nH]c2ccccc12)Nc1ccccc1N1CCOCC1	i	0.71	104	-4	/	/	/
Cc1ccc(CS(=O)(=O)CCC(=O)NCCN2CCCCC2C)cc1 (centres undefined)	i	1.1	178	-7	-2.2	13	151
CC(=O)N(c1ccc(C(C)C)cc1)C1C=CS(=O)(=O)C1 (centres undefined)	i	0.93	101	4	-0.4	-3	193
CN(CCC#N)C(=O)COC(=O)c1nn(-c2ccccc2)c(=O)c2ccccc12	i	0.92	108	10	/	0	84
O=C(Cc1ccccc1)NNC(=O)Nc1ccccc1	i	1.1	108	4	/	-29	103
CCOC(=O)c1sc(-c2ccccc2)cc1N	i	0.92	98	1	-1.8	22	113
Cc1nn2cc(-c3ccc(Cl)cc3)nc2s1	i	0.92	103	-12	9.8	/	/
C=CCn1c(-c2cccs2)nc2nc3ccccc3nc21	i	0.97	99	4	3.9	41	116
CCOc1ccc(/C(O)=C2/C(=O)C(=O)N(CCOCCO)C2c2cccnc2)cc1 (centres undefined)	i	0.96	101	-7	-1.7	-42	100
COc1cccc(NC(=O)CNS(=O)(=O)c2ccc(Cl)cc2)c1	i	1.1	108	-3	0.0	-23	109
O=C(NCCCN1CCOCC1)c1c(O)c2cc(Br)cc(Br)c2[nH]c1=O	/	/	/	-6	-1.9	-198	59
CCOC(=O)C1CCN(C(=O)Nc2ccc3nc(C)c(C)nc3c2)CC1	i	0.94	96	-3	-2.6	-110	72
COc1cccc(CNC(=O)Cn2ncc3c(=O)oc4ccccc4c32)c1	i	0.94	97	/	/	/	/
CCNc1nc(Oc2ccc(OC)cc2)cc(C(F)(F)F)n1	i	0.92	102	-6	/	/	/
COC(=O)c1sccc1NC(=O)Cc1ccc(OC)c(OC)c1	i	1	106	-2	0.0	-13	94
CC(C)Cn1c(N)c(C(=O)CSc2nnnn2C)c(=O)n(C)c1=O	i	0.92	100	-3	-2.8	9	84
NCCNC[C@@H]1COC2(CCCCCCCCCCC2)O1	i	0.75	100	/	/	/	/
Cc1noc(C)c1CSc1nnc(-c2c[nH]c3ccccc23)n1-c1ccc(Cl)cc1	i	1	110	1	0.9	0	73
CCN(CC)CCCN=Cc1c(O)n(-c2cccc(C)c2)c(=O)c2ccccc12	i	0.85	99	/	/	/	/
COC(=O)c1ccccc1NC(=O)Cn1nc(C(F)(F)F)c2c1CCC2	i	1.1	102	-8	-1.6	-19	99
CCOc1ccc2nc(Cl)sc2c1	i	0.85	97	-6	/	-44	150
O=C(CCn1c(=S)oc2ccccc21)NC1CCCCCC1	i	0.87	102	/	/	/	/
N#Cc1c(N)c(C#N)c(-c2ccc(O)cc2)c2c1CCCC2	i	0.92	104	-7	-0.7	33	112
Cc1ccc(NC(=S)NNC(=O)c2cn(C)nc2C)cc1	i	1	100	-10	-2.8	12	126
O=c1c2c3c(sc2n2cnnc2n1-c1ccccc1)N(Cc1ccccc1)CCC3	i	0.92	99	-9	-0.4	3	92
CCOc1ccc(NC(=O)CCC(=O)NNC(=O)Nc2ccc(Cl)cc2)cc1	i	0.99	102	1	/	/	/
COc1cccc(NC(=S)N(CCCN2CCCC2)Cc2ccco2)c1	i	0.88	99	-1	/	-20	91
NS(=O)(=O)c1ccc(NC(=O)COC(=O)C23CC4CC(CC(C4)C2)C3)cc1	i	1	122	0	-0.5	-5	79
CC(OC(=O)c1ccco1)C(=O)NCc1cccs1 (centres undefined)	i	0.88	74	2	-0.9	/	/
COc1ccc(NC(=O)CC(C)=O)c(OC)c1	i	0.83	99	/	/	/	/
COc1cccc(NC(=O)Nc2nnc(CC(=O)Nc3ccccc3)s2)c1	i	0.91	100	/	/	/	/
COCCN(CCOC)S(=O)(=O)c1ccc(OC)cc1	i	0.85	107	1	-2.3	/	/
O=C(CS(=O)(=O)c1ccc2ccccc2c1)N1CCCCCC1	/	/	100	-1	/	-38	109
COc1cc(C)c(Cl)c(C)c1S(=O)(=O)NCc1cccnc1	i	0.78	26	-1	-3.5	25	106
N/C(=N\OC(=O)COc1ccc(Br)cc1Cl)c1ccncc1	/	/	98	-9	-0.6	25	159
N#Cc1ccccc1/C=C/C(=O)N1CCOCC1	i	0.95	107	-8	/	/	/
COc1ccc(-n2c(Cc3cccn3C)nnc2SCC(=O)Nc2ccc3c(c2)OCO3)cc1	i	0.62	96	6	-0.7	/	/
CCn1c(SCC(=O)Nc2nc(C)c(C)s2)nc2cccnc21	/	/	107	-5	-0.6	-6	121
O=S(=O)(Nc1ccccc1N1CCCCC1)c1ccc(Cl)s1	i	1	101	-11	-1.7	-52	114
O=C(O)CSc1nc2ccccc2s1	i	1.2&0.87	105&86	/	/	/	/
COCCC(=O)Nc1ccc2c(c1)CN(C(=O)CSC)CC2	i	1.1	103	/	/	/	/
CCOc1ccccc1NC1=C(Cl)C(=O)N(Cc2ccccc2)C1=O	i	0.98	156	5	-3.9	8	99
Cc1ccc(S(=O)(=O)NC(=O)Nc2nccs2)cc1	i	0.9	107	/	/	/	/
CCOC(=O)C1=C(C)Nc2nc(C)nn2C1c1ccc(C)cc1 (centres undefined)	/	/	100	-10	-0.9	10	112
CCOc1cc(/C=N/NC(=O)c2nn(C)cc2Br)ccc1OCc1ccccc1	i	0.81	97	-9	-0.8	31	190
O=C(c1cccc(S(=O)(=O)N2CCOCC2)c1)N1CCN(Cc2ccc3c(c2)OCO3)CC1	i	0.98	104	-1	/	/	/
(cont.)
SMILES	HSV replic up	HSV replic up primary fold	RGS16-Gao HTS	PKD1 inh	GALR2 agonist	Insulin prom inh	Insulin prom inh cell count
N#CCn1cnc2sc(-c3ccccc3)cc2c1=O	i	1.1	94	-3	/	-6	47
Nc1nc(SCC(=O)NCc2ccccc2Cl)[nH]c(=O)c1NC(=O)c1ccccc1F	i	1	109	-4	-0.2	40	130
O=C(C1CCCCC1)N1CC(=O)N2CCc3ccccc3C2C1 (centres undefined)	/	/	104	-2	-1.3	-71	168
CCc1nc(Nc2ccc3c(c2)OCO3)c2oc3ccccc3c2n1	/	/	99	-8	-1.6	79*	158*
CC(OC(=O)c1cc2sccc2n1C)C(=O)NCc1ccco1 (centres undefined)	i	0.88	107	3	-0.7	-51	104
OC[C@H]1O[C@@H](n2cnc3c(Nc4ccccc4)ncnc32)[C@H](O)[C@@H]1O	i	0.83	112	0	0.2	38	139
O=C(NCC1(c2ccccc2)CCCC1)c1ccccc1	i	1	102	-2	-1.6	25	179
COc1cc(CNn2cn[nH]c2=S)cc(Cl)c1OCc1ccc(F)cc1	i	1	96	7	0.9	/	/
O=c1onc(-c2ccc(Cl)cc2Cl)n1-c1cccnc1	i	1.1	99	/	/	/	/
Cc1c2ccccc2cc[n+]1CCCS(=O)(=O)[O-]	i	0.95	100	5	/	44	106
C[C@]12CCC3C(CC=C4C[C@@H](O)CC[C@@]43C)C1CCC2[C@]1(C)CCC(=O)O1 (some centres undefined)	i	1	102	-2	-0.7	-14	61
O=C(COc1ncnc2cc([N+](=O)[O-])ccc12)NC1CCCCC1	i	0.97	101	/	/	/	/
CC(=O)Nc1nonc1-c1nc2ccccc2n1CC1CC1	i	1	80	2	-2.8	-11	100
C[C@H]1CN=C2N(CCNC(=O)CCC3CCCCC3)[C@H](Cc3ccc(O)cc3)CN21	i	0.92	93	-2	/	/	/
CCC(Sc1nc(C)cc(=O)[nH]1)C(=O)Nc1nc(-c2ccccc2)cs1 (centres undefined)	i	0.9	70	-7	-1.6	20	109
CN(Cc1ccc(OC(F)F)cc1)Cc1nc2c(Br)cc(Br)cc2c(=O)[nH]1	i	0.98	103	0	/	0	146
Cc1ccc2c(C)nc(N/C(N)=N/S(=O)(=O)c3ccc([N+](=O)[O-])cc3)nc2c1	i	0.97	101	1	1.8	62	94
O=C(Nc1cccc(S(=O)(=O)N2CCCCC2)c1)C1CC(=O)N(Cc2ccco2)C1 (centres undefined)	i	1.1	102	-1	/	0	157
COc1ccc(-c2nnc(OCc3ccccc3)c3ccccc23)cc1	i	0.93	100	1	0.7	7	159
Cc1cc(C)n2cc(CSc3ncccc3C(=O)O)nc2n1	i	1	101	6	-1.1	29	115
CC(=O)N1N=C(c2ccco2)CC1c1ccc(Br)cc1 (centres undefined)	i	1	128	-6	-1.5	/	/
O=C(O)/C=C/C(=O)N1CCN(C(=O)/C=C/C(=O)O)CC1	i	1.1	106	-8	1.1	/	/
COc1ccc(OC)c(NC(=O)Cn2c(CCC(=O)O)ccc2-c2cccs2)c1	i	0.95	103	-3	-0.7	23	127
O=C(O)c1ccc(N/N=C/c2cn(-c3ccccc3)nc2-c2cccs2)cc1	i	0.97	101	-10	/	/	/
Cc1nnc2ccc(-c3cccc(NC(=O)c4ccco4)c3)nn12	i	0.92	105	5	/	58	135

Structures shown so far containing a thiophene ring, fused or not (10):
SMILES	HSV replic up	HSV replic up primary fold	RGS16-Gao HTS	PKD1 inh	GALR2 agonist	Insulin prom inh	Insulin prom inh cell count
CCOC(=O)c1sc(-c2ccccc2)cc1N	i	0.92	98	1	-1.8	22	113
C=CCn1c(-c2cccs2)nc2nc3ccccc3nc21	i	0.97	99	4	3.9	41	116
COC(=O)c1sccc1NC(=O)Cc1ccc(OC)c(OC)c1	i	1	106	-2	0.0	-13	94
O=c1c2c3c(sc2n2cnnc2n1-c1ccccc1)N(Cc1ccccc1)CCC3	i	0.92	99	-9	-0.4	3	92
CC(OC(=O)c1ccco1)C(=O)NCc1cccs1 (centres undefined)	i	0.88	74	2	-0.9	/	/
O=S(=O)(Nc1ccccc1N1CCCCC1)c1ccc(Cl)s1	i	1	101	-11	-1.7	-52	114
N#CCn1cnc2sc(-c3ccccc3)cc2c1=O	i	1.1	94	-3	/	-6	47
CC(OC(=O)c1cc2sccc2n1C)C(=O)NCc1ccco1 (centres undefined)	i	0.88	107	3	-0.7	-51	104
COc1ccc(OC)c(NC(=O)Cn2c(CCC(=O)O)ccc2-c2cccs2)c1	i	0.95	103	-3	-0.7	23	127
O=C(O)c1ccc(N/N=C/c2cn(-c3ccccc3)nc2-c2cccs2)cc1	i	0.97	101	-10	/	/	/
